MLL AF4-AF9 inh – inhibitors of AF4 peptide binding to AF9, primary screen, biochemical, AlphaScreen, biotin-AF4 peptide, FLAG-AF9, single point | inhibition, % at 10 µM | 350,000 compounds, 0.47% hits;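 active = every replicate reaching a set inhibition limit, whatever the replicate mean, cut at about 25% in these data; inconclusive = mean inhibition reaches that limit but some replicates miss it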;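 note: 0% = plate neutral control median and 100% = total signal loss; the record names both 10 and 1 µM as test concentration; the first replicate is given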
Target sequence (P42568 whole entry, looked up): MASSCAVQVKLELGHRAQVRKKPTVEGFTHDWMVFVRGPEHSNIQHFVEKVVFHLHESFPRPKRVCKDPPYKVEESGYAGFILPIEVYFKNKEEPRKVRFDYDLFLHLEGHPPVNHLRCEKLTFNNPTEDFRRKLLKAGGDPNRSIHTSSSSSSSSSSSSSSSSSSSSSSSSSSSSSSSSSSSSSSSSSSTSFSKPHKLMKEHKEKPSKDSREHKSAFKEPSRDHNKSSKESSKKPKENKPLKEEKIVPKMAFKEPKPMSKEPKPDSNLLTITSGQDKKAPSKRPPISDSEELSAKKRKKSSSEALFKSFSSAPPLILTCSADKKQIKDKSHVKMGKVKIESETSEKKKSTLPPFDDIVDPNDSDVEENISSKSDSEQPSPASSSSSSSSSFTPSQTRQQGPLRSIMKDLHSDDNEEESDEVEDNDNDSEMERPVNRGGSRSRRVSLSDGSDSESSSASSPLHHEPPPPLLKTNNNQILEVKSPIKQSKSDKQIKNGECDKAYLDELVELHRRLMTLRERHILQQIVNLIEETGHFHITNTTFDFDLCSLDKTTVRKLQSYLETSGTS
Vif TR-FRET – inhibitors of Vif binding to APOBEC3G peptide, primary screen, biochemical, TR-FRET, GST-Vif 1-94, biotin-A3G peptide, dose response retest (AID 1117319); 260,000 compounds, 0.57% hits; TR-FRET GST-Vif / biotin-A3G peptide binding; higher % means a stronger effect; test concentration not given here; strong numbers were not always called active; inhibition, %, or IC50 in µM where a hit was titrated;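 active = above the screen mean plus three standard deviations and confirmed in dose response; inconclusive = results disagree or hit not tested in dose response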;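 note: Vif residues 1-94 fused to GST binding biotinylated APOBEC3G peptide 110-148; 0% = full assay without inhibitor and 100% = GST in place of GST-Vif; retest series ran down from 100 µM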
Bfl-1 A1 inh – caspase 3/7 activation in MEF A1-2A-BIM cells, primary screen, A1 inhibitor project, cell-based, luminescence, HTS | AID 2462, 2010 | Caspase-Glo 3/7 luminescence, 3 h; percent of clofoctol response, vehicle zero | 330,000 compounds, 0.066% hits | caspase activation, % (concentration not given with the values);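 active = over half of replicate activation scores above 10%, or exactly half above 10 with the replicate mean above 10; inconclusive = replicate mean below 10 yet half the replicates above 10; inactive = over half of replicates below 10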;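 note: wells of about 30 µL received 50 nL stock; many hits fall short of the cut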
Calb FLC – C. albicans growth inhibition with fluconazole, primary screen, CaCi-2 strain, Alamar Blue fluorescence | C. albicans CaCi-2 (fluconazole-resistant clinical isolate) + fluconazole, 48 h | growth inhibition, % (concentration not given with the values) | 300,000 compounds, 0.57% hits | AID 1979, 2009;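 active = most replicates above 75%; inconclusive = exactly half above 75%; inactive = most below 75%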;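 note: all wells also contain fluconazole at 8 µg/ml as a sub-toxic cotreatment; 0% = median of DMSO wells and 100% = median of geldanamycin control wells; wells of about 8 µL received 7.5 nL stock; the first replicate is given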
RanGTP-Imp inh – inhibitors of RanGTP-importin-beta interaction, primary screen, biochemical, FRET, CFP-Ran, YFP-importin-beta, homogeneous; Ran GTPase (GTP-bound) - importin-beta complex; cell-free CFP-Ran/YFP-importin-beta FRET ratio; inhibition, % (test concentration not listed); 300,000 compounds, 1.1% hits;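 active = most replicates above 15%; inconclusive = exactly half above 15%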;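 note: 0% = DMSO wells and 100% = Ran loaded with GDP instead of GTP; wells of about 40 µL received 100 nL stock; the first replicate is given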
Beta apoptosis – inhibitors of cytokine-induced beta cell apoptosis, primary screen, luminescence. INS-1E cytokine-induced death, ATP luminescence, 48 h; percent of positive-control rescue, neutral wells zero. 300,000 compounds, 0.8% hits. AID 435005, 2010. protection from apoptosis, % (test concentration not listed);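 active = all replicates at 75% or more, or half of them and the mean; inconclusive = half reach 75% but not the mean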;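 note: 0% = cytokine-treated negative control wells and 100% = positive control rescue; higher means more ATP so stronger rescue from cytokine killing; wells of about 40 µL received 100 nL stock; the first replicate is given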
T cruzi repl – inhibitors of intracellular T. cruzi growth, primary screen, luminescence, NIH3T3 host cells. inhibition, % (concentration not given with the values). 300,000 compounds, 1.4% hits. T. cruzi beta-gal in NIH3T3, 90 h;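 active = mean inhibition across valid replicates above about 55%, limit read from the data; inconclusive = mean below that limit but half or more replicates reach it; inactive = mean below it, under half of replicates reach it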;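 note: signal also drops with host cell toxicity which is not excluded here; 0% = plate median of DMSO wells and 100% = zero luminescence signal; higher percent means less beta-gal luminescence so fewer parasites; stock transfer was 50 nL into about 50 µL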
LANA-H2B inh – blockers of LANA interaction with H2A/H2B – biochemical, FP readout, HTS, primary screen; cell-free LANA-H2A/H2B peptide, fluorescence polarization; inhibition, % (no concentration beside the values); 320,000 compounds, 0.6% hits; AID 2629, 2010; in the data active = inhibition mostly above about 10%, no sharp cut-off; inactive = mostly below about 6.7%;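 note: stock transfer was 7.5 nL into about 10 µL; 0% = median of vehicle wells and 100% = median of positive control wells; one replicate is shown; the record names a cut of 25% in any replicate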
Active calls of the source: *; ? = inconclusive; · = no result given; & = joins results of further samples.

The line under a structure holds: MLL AF4-AF9 inh	Vif TR-FRET	Bfl-1 A1 inh	Calb FLC	RanGTP-Imp inh	Beta apoptosis	T cruzi repl	LANA-H2B inh
O=C(CSc1nnc(-c2ccc(Cl)cc2)n1CC1CCCO1)NC1CCS(=O)(=O)C1 (stereo not drawn)
  -0.5	-16%	-1.0	3	3.0	-1	-3	-3.9
O=C(CNC(=O)c1cccc(F)c1)N/N=C/c1ccc(O)c([N+](=O)[O-])c1
  1.4	16%	-1.3	-3	-2.1	1	-12	-3.1
COc1cccc(-n2c(Cc3cc(=O)[nH]c(=O)[nH]3)nnc2SCc2cccc(C(F)(F)F)c2)c1
  1.4	-2%	-0.3	-9	11	-4	-20	-0.5
O=c1oc2cc(OCc3ccc(C(F)(F)F)cc3)ccc2cc1-c1ccccn1
  ·	-6%	0.0	1	2.9	-1	-1	5.0
Cc1cc(C)n(C(=O)CNC(=O)c2ccco2)n1
  ·	2%	-0.1	1	4.1	-4	-11	-0.1
CC(=O)c1ccc(-c2ccc([C@H]3[C@H]4C=CC[C@@H](C)[C@@H]4C(=O)N3Cc3ccccc3)c(F)c2)cc1
  -3.4	4%	0.7	-6	3.9	9	46	-4.8
COC(=O)c1ccc(NC(=O)COc2ccc(S(=O)(=O)NC(C)(C)C)cc2)cc1
  0.0	-6%	1.1	17	-2.0	-2	-7	3.5
O[C@H]1COC2C1OC[C@@H]2O (stereo partly drawn)
  -0.7	?	·	·	-1.8	·	-11	8.3
COc1cccc(CN(C)C(=O)c2[nH]c(C)c(C(C)=O)c2C)c1OC
  1.1	-1%	-0.1	8	2.4	16	-11	0.8
CCN(CC)C(=O)C(C(=O)c1cccc([N+](=O)[O-])c1)n1cc(Cl)ccc1=O (stereo not drawn)
  -2.1	4%	0.3	59	-2.7	0	-11	-0.5
CC(NC(=O)c1ccccc1Cl)C1CC2CCC1C2 (stereo not drawn)
  0.5	·	1.2	-7	7.0	-6	-1	5.6
NC(=O)C1CCCN(C(=O)CCc2nnc(C3(c4ccc(Cl)cc4)CCC3)o2)C1 (stereo not drawn)
  -0.3	-7%	0.0	-5	3.3	4	-17	0.8
CCc1cc(C(=O)Nc2cc(Cl)ccc2N2CCN(C)CC2)sc1C
  -26	-21%	0.5	-22	0.0	3	21	2.7
COc1ccccc1-n1nnnc1SCC(=O)NCC1CCCO1 (stereo not drawn)
  -1.0	-4%	0.8	1	-0.9	2	7	-3.2
COc1ccc(C(=O)NCC(=O)OCC(=O)NCCC2=CCCCC2)cc1
  0.5	5%	0.9	10	1.4	3	-14	1.0
CCC(C)NC(=O)C1CCCN(S(=O)(=O)c2ccc3c(c2)CC(C)N3C(C)=O)C1 (stereo not drawn)
  4.1	·	0.0	-3	4.6	3	-8	-0.3
C=CCn1c(SCC(=O)Nc2c(C)cccc2C)nnc1-c1cnccn1
  ·	-1%	?	14	-2.4	-2	-14	1.5
O=C(N/N=C/c1cccnc1)c1cc(C2CC2)nc2ccccc12
  ·	·	1.1	3	-0.4	-2	-2	4.7
CCCNC(=O)COC(=O)c1ccc(S(=O)(=O)N2CCCCCC2)cc1
  ·	-4%	-1.6	4	5.3	8	-5	-3.5
O=C(Nc1ccc(N2CCOCC2)cc1)c1c(F)cccc1Cl
  0.6	2%	-0.3	-2	-6.1	-1	-9	14
O=C(COc1ccc(F)cc1)N1CCCCCCC1
  -3.3	·	0.5	-6	4.7	-1	0	-3.2
O=C(COc1ccc(/C=N/NC(=O)c2cccnc2)cc1)Nc1ccccc1
  -2.7	4%	-0.1	3	4.5	·	6	-4.9
C[C@@H](C(=O)NCc1ccc(S(C)(=O)=O)cc1)[C@@H]1C[C@@]1(C)[C@@H](NC(=O)OCc1ccccc1)c1ccccc1
  -9.0	2%	0.2	·	·	11	·	2.7
CCOC(=O)N1CCC(=NNc2ccc(S(=O)(=O)N3CCOCC3)cc2[N+](=O)[O-])CC1
  -3.7	31%	-0.3	-1	?	·	2	2.6
CC(C)(C)C(=O)N(Cc1ccccc1)c1ccccn1
  -5.0	-4%	-0.1	22	-2.3	1	-6	0.3
Cc1cc(C(=O)CSc2n[nH]c(-c3ccccc3F)n2)c(C)n1Cc1cccs1
  ·	1%	-0.2	-24	3.1	-2	26	·
Cc1ccc(CN2CCN(Cc3cnc(C)s3)CC2CCO)o1 (stereo not drawn)
  -0.1	-2%	0.0	-19	7.4	-7	-4	-7.6
CCOc1ccccc1N(C)C(=O)Cn1ncc2c([nH]c3ccccc32)c1=O
  2.5	·	0.5	0	-2.1	-4	-8	-3.0
Cc1cccc(N2CCN(S(=O)(=O)c3c(C)[nH]c(=O)[nH]c3=O)CC2)c1C
  ·	-4%	-0.7	-18	3.3	-5	-5	-3.1
Cn1ccnc1C(=O)c1ccc(NN)c([N+](=O)[O-])c1
  -2.9	6%	0.0	3	1.3	-28	12	5.8

Continuation.
The line under a structure holds: MLL AF4-AF9 inh	Vif TR-FRET	Bfl-1 A1 inh	Calb FLC	RanGTP-Imp inh	Beta apoptosis	T cruzi repl	LANA-H2B inh
Cc1nn(CC(=O)N2CCN(c3ccc(Cl)cc3)CC2)c(=O)c2cccn12
  2.3	·	0.5	-2	-1.9	-1	1	2.3
OCCCn1c(C2CCCN2c2nc(-c3ccc(F)cc3)cs2)nc2cc(Cl)c(N3CCCCC3)cc21 (stereo not drawn)
  1.2	·	0.5	-1	-3.1	-8	-17	-4.1
O=C(Oc1cc(=O)oc2c1c(=O)n1c3c(cccc23)CC1)c1ccc(F)cc1
  ·	8%	-0.4	-1	5.1	10	-12	3.4
CC(CC(=O)N1CCN(c2cccc(Cl)c2)CC1)S(=O)(=O)c1ccc2c(c1)NC(=O)CO2 (stereo not drawn)
  -2.6	·	?	-8	-1.8	80*	13	3.4
Cc1ccnc(Nc2nc(-c3c(C)nc4sccn34)cs2)c1
  ·	24%	0.0	35	0.2	14	35	3.2
CC(=O)c1cccc(NC(=O)CC2S/C(=N/N=C/c3cccs3)NC2=O)c1 (stereo not drawn)
  -0.3	-1%	0.5	-5	-0.6	3	-24	-1.0
COc1cc(C(=O)NC(c2ccccc2)c2ccccc2)cc(OC)c1OC
  -4.2	-2%	0.9	2	-4.7	0	3	-1.2
CC[n+]1c(/C=C2/C=C(C)CC(C)C2)sc2ccccc21 (stereo not drawn)
  2.3	?	-0.9	7	1.4	19	34	1.8
Cc1cc(C(=O)CN2C(=O)NC3(CCCCC3)C2=O)c(C)n1Cc1ccc2c(c1)OCO2
  ·	-1%&-5%	-0.3	-2	-3.5	1	11	1.8
COC(=O)C(Cc1c[nH]c2ccccc12)NC(C)=O (stereo not drawn)
  ·	7%	-0.5	2	2.4	-8	0	1.0
Cc1cc2c(cc3c(=O)n(CC(=O)NCCCN4CC(C)CC(C)C4)ncn32)s1 (stereo not drawn)
  -2.0	·	0.2	-3	0.0	-7	-1	0.0
COc1ccc(OCC(O)CN2C(=O)NC(C)(C)C2=O)cc1 (stereo not drawn)
  ·	1%	1.0	-11	7.2	3	0	-7.9
Cc1cc(C(=O)OC(C)C(=O)N2CCc3ccccc32)ccc1[N+](=O)[O-] (stereo not drawn)
  2.9	2%	0.0	1	-2.6	0	3	·
CCCOc1cccc(C(=O)Nc2cccc(NC(=O)c3ccco3)c2)c1
  ·	10%	0.2	4	6.3	-1	9	4.8
Cc1cc(S(=O)(=O)Nc2noc3ccccc23)ccc1F
  -1.1	-2%	-0.1	-5	1.1	-2	-1	4.9
O=C(CC1C(=O)NCCN1C(=O)c1ccccc1)Nc1cc(Cl)ccc1Cl (stereo not drawn)
  -1.5	·	-1.2	15	-3.0	2	13	-5.7
Cn1c(=O)c2c(nc(N/N=C/c3cccnc3)n2Cc2ccccc2)n(C)c1=O
  0.4	·	0.8	1	0.3	·	-27	4.8
Cn1c(N)c(C(=O)CSc2nc3ccccc3c(=O)n2Cc2ccccc2)c(=O)n(C)c1=O
  -12	-24%	0.5	7	-2.4	5	-20	0.4
O=C(CSc1nc2ccccc2s1)Nc1nccs1
  ·	32%	0.6	-15	1.4	-2	-7	-1.3
O=C(c1ccncc1)N1N=C(C2CC2)CC1(O)C(F)(F)F (stereo not drawn)
  -1.4	-2%	0.5	0	1.2	-6	-21	0.8
Cc1cc2c(cc1C)C(c1cccc(F)c1)CC(=O)N2 (stereo not drawn)
  0.2	·	0.2	14	-2.2	-3	4	-4.1
CCOC(=O)N1CCN(C2CCCN(C(=O)c3cccc(Cl)c3)C2)CC1 (stereo not drawn)
  1.2	·	-0.2	-2	?	5	0	3.8
CCCCN1C(=O)C(=O)N(CC(=O)Nc2cccc(C(C)=O)c2)C1=O
  1.3	·	0.1	·	·	-2	·	-0.4
Cc1ccc(OCC(=O)Nc2ccc(N3CCCC3)cc2)cc1C
  ·	0%	0.7	-24	-5.2	·	24	2.7

High-throughput results deposited in PubChem by several laboratories.
